TRPML1 agonist – activates the human TRPML1 channel; TRPML1-expressing cells, Ca2+ dye fluorescence, FDSS; host cell line not named in the record; reference of the full effect not given here; activation, % (test concentration not listed); Q9GZU1; actives 0.12% (n = 410,000); in the data active = activation above about 50%; inconclusive = about 30% to 50%; inactive = below about 30%; also: 0% is about no effect; the text of the record puts the active cut at 80%
Target sequence (Q9GZU1 whole entry, looked up): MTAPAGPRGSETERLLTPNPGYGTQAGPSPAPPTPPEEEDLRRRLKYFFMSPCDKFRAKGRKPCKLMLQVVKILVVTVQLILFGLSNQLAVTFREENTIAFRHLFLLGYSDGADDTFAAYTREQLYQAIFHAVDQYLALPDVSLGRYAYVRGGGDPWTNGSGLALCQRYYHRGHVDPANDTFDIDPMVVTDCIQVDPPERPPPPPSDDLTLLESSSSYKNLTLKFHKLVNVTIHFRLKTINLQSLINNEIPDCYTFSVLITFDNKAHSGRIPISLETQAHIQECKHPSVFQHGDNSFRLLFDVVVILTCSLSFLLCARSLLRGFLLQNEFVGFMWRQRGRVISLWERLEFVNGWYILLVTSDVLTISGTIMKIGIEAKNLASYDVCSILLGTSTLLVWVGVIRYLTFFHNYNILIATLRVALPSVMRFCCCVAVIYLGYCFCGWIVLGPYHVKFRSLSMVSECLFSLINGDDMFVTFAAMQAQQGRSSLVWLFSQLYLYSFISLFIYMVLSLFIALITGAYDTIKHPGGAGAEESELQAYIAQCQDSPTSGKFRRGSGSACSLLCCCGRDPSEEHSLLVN
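Tet-induced TRPML1-DL cells, 1,500 per well, cultured overnight, were loaded with a no-wash Ca2+ dye for 45–90 min. Calcium fluorescence was recorded on the FDSS for 110 s after compound addition, before the EC80 agonist (4 uM 54-4) was added.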
Six1-Eya2 inh – Six1/Eya2 interaction inhibition | Q15475+O00167 | AlphaScreen GST-Six1/His-Eya2 binding, biochemical; active compounds read low; control for the full effect not named in the record | activity change, % (test concentration not listed) | actives 0.56% (n = 360,000); in the data active = activity change below about -65%; inconclusive = about -30% to -65%; inactive = above about -30%; also: % is scaled to controls: 0 for no effect and ±100 for the full control effect
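Compounds are tested against tagged Six1 and Eya2 proteins bridged by glutathione donor and nickel acceptor beads; after a one-hour incubation at 37 °C without light, AlphaScreen emission is recorded.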
TRPML1 inh – blocks the human TRPML1 channel | TRPML1-inducible cells, Ca2+ dye fluorescence, FDSS; active compounds read low; inhibition of EC80 agonist-evoked calcium signal | actives 0.02% (n = 390,000) | Q9GZU1 | activity change, negative = inhibition, % (concentration not given with the values); in the data active means activity change below about -50%; inconclusive means about -30% to -50%; inactive means above about -30%;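 also: stimulus is agonist 54-4 at its EC80 concentration; % is scaled to controls: 0 for no effect and ±100 for the full control effect; the text of the record puts the active cut at -80%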
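Tet-induced TRPML1-DL cells loaded with Ca8 no-wash calcium dye were read kinetically on FDSS. Compound addition was followed by EC80 agonist 54-4 (4 uM final); inhibition was read over 110 s.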
CtBP-E1A blk – blocks the CtBP interaction with E1A; AlphaScreen GST-E1A/His-CtBP binding, 1536-well; active compounds read low; control for the full effect not named in the record; activity change, % (concentration not given with the values); actives 0.49% (n = 340,000); in the data active means activity change below about -65%; inconclusive means about -30% to -65%; inactive means above about -30%; also: % is scaled to controls: 0 for no effect and ±100 for the full control effect
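AlphaScreen with 125 nM GST-E1A and 125 nM His-CtBP (5X stocks) in Tris pH 8.0, 300 mM NaCl, BSA, Tween 20, TCEP. Compounds preincubated 2 h at 37 deg C, then glutathione donor/nickel acceptor beads added for 1 h at 37 deg C in dark.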
D2 ag – activates the human D2 dopamine receptor. AID 624465. P14416. DiscoveRx PathHunter D2 beta-arrestin, luminescence, 90 min; 100% = 57 uM dopamine signal. activation, % (concentration not given with the values). actives 0.084% (n = 360,000); in the data active = activation above about 40%; inconclusive = about 15% to 40%; inactive = below about 15%; also: compound concentration not given in the record; the text of the record calls up to 30% inactive
Target sequence (P14416 whole entry, looked up): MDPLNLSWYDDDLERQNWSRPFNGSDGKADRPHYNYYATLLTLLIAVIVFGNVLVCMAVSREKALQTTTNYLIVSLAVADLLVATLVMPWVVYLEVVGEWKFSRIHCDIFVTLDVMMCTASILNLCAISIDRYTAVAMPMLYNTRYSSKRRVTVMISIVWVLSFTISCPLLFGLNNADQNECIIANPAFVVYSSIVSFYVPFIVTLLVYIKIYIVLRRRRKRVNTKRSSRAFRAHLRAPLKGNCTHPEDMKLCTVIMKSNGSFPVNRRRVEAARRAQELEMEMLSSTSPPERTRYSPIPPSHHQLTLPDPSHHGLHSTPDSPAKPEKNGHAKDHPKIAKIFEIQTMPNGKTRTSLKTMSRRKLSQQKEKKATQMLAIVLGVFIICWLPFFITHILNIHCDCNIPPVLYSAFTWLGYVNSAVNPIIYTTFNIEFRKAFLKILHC
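DiscoveRx PathHunter D2 beta-arrestin cells (2,100/well) attached overnight, then compound-stimulated 90 min at 37 C in HBSS/10 mM HEPES/0.1% Tween-20 buffer; beta-galactosidase complementation read by luminescence after 1 h at ambient temperature. Dopamine 57 uM final (EC100) as control.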
PINK1 modulator – PINK1 expression modulation; PINK1 immunofluorescence, high-content cytometry, 24 h; Potency, µM (titrated, usually from 76.6 µM), for inactives: at the top dose activation (PINK1 increase), actives largely listed as activators; actives 0.2% (n = 410,000); AID 624263; active = well fitted activation curve with a large enough effect; inconclusive = small, poorly fitted or top-dose-only effect; inactive = flat fitted curve, though single readings scatter; cell line not stated here;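 also: potency is read from the fitted curve at half-maximal effect; % of control where 0% means no effect; nearly all actives have a fitted effect of over 65% in size; a mitochondrial uncoupler was the plate control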
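PINK1 protein, normally rapidly degraded, was detected by immunofluorescence after 24 hour compound treatment of a stable cell line. Titration data (5 concentrations) came from laser-scanning cytometry, with CCCP-treated wells as controls.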
The depositor's hits bear a star; ? = inconclusive; nt = not tested or not shown; & = joins results of further samples; [ ] = remark or other dose.

SMILES | TRPML1 agonist | Six1-Eya2 inh | TRPML1 inh | CtBP-E1A blk | D2 ag | PINK1 modulator
O=c1cc(C23CC4CC(CC(C4)C2)C3)[nH][nH]1 | 5.8 | 2 | -7 | 3 | 4.5 | 1.6%[38.3 µM]
CN1/C(=C\C=C(/C#N)C(=O)Nc2ccccc2F)C(C)(C)c2ccccc21 | ? | 11 | -1 | -2 | -4.2 | 2.0%
CCN(CC(=O)NC1CCS(=O)(=O)C1)C(=O)c1cc(OC)c(OC)c(OC)c1 (stereo unspecified) | -0.5 | -2 | -2 | 2 | -0.3 | 2.5%
Cc1cccc(NC(=O)CN(CC2CCCO2)C(=O)c2cc3ccccc3o2)c1C (stereo unspecified) | 0.1 | 5 | -7 | 4 | 7.9 | 0.1%
O=C(COC(=O)c1ccc(S(=O)(=O)Nc2ccccc2)cc1)NCCC1=CCCCC1 | 0.4 | 9 | -7 | 5 | -3.4 | 1.9%
COc1ccc2[nH]c(=O)c(CN(C(=O)C3CCCO3)c3ccc(C)c(C)c3)cc2c1 (stereo unspecified) | -0.9 | 5 | -3 | 7 | -2.0 | 1.0%
CC(NC(=O)c1ccccc1SCC(=O)N1CCCC1)c1ccccc1 (stereo unspecified) | -0.3 | 6 | 8 | 8 | -3.1 | -0.3%
COc1ccccc1-c1nc2c(c(SCc3cc(C)ccc3C)n1)Cc1c(CO)cnc(C)c1O2 | 1.5 | nt | -6 | nt | nt | -1.2%
N=C1/C(=C\c2ccc(-c3cccc(C(=O)O)c3)o2)C(=O)N=C2SC=C(c3ccccc3)N12 | nt | -15 | nt | ? | -6.0 | 0.7%
CCn1c(SCC(=O)N2CC(C)OC(C)C2)nc2c([nH]c3ccccc32)c1=O (stereo unspecified) | -0.4 | 0 | -1 | -2 | -3.4 | 6.7%
COc1ccc(OC)c(NC(=O)COC(=O)c2ccc(S(=O)(=O)N3CCOCC3)cc2)c1 | -0.4 | 1 | -13 | 4 | 0.2 | -1.4%
CCCCC(CC)c1nnc(NC(=O)c2cccs2)s1 (stereo unspecified) | 4.4 | -1 | 1 | nt | 1.1 | 0.7%
COC(=O)CSc1nc(C)c(C(C)=O)cc1C#N | -0.7 | -2 | -17 | -13 | -5.1 | 17%[38.3 µM]
COc1ccccc1NS(=O)(=O)c1cc(NC(=O)c2cc[n+]([O-])cc2)ccc1N1CCCC1 | 1.7 | ? | 24 | ? | -3.7 | -0.6%
NCCCC[C@H](N[C@@H](CCc1ccccc1)C(=O)O)C(=O)N1CCC[C@H]1C(=O)O | -0.3&0.9 | -2&3 | -8&35 | 28&1 | 0.1&1.3 | 0.9%&0.4%
CCOC(=O)c1cnc2cc(C)nn2c1-c1ccccc1 | -0.7 | 3 | 0 | 6 | 0.1 | -1.5%
CCOC(=O)c1ccccc1NC(=S)N1CCN(C2CCCCC2)CC1 | 0.7 | -7 | 2 | nt | -9.7 | 0.3%
Cc1ccc2nc(-c3ccc(C)o3)c(Nc3ccc4c(c3)OCCO4)n2c1 | 2.3 | nt | 14 | nt | nt | 3.8%
CC(C)CN(C(=O)COC(=O)c1cnccn1)c1c(N)n(Cc2ccccc2)c(=O)[nH]c1=O | -0.2 | -4 | 1 | 5 | 1.7 | 0.4%
COc1cccc(CNC(=O)COC(=O)c2c(NC(C)=O)sc(C)c2C)c1 | -0.3 | 17 | -19 | -10 | -1.7 | 1.7%
Cc1ccc(CNC(=O)c2ccc(N3CCC4(CC3)CC(c3cccc(Br)c3)=NO4)c(NC(=O)c3ccc(Br)cc3)c2)cc1 | -0.2 | 2 | -8 | 1 | 0.3 | -0.5%
CC(=O)N1CCC(C(=O)c2ccc(Cl)cc2)CC1 | 0.0 | 3 | -14 | 1 | -1.3 | 1.8%
CC(C)(C)NC(=O)Cn1cc(C#N)c2cc(Br)ccc21 | 1.0 | 3 | -4 | 7 | 1.2 | 11%[38.3 µM]
CC(Sc1nc(-c2ccco2)nc2c1c(=O)n(C)c(=O)n2C)C(=O)O (stereo unspecified) | 0.0 | -7 | -1 | nt | -3.9 | 1.1%
CCOC(=O)C1CCN(C(=O)CCc2nc3sc4c(c3c(=O)[nH]2)CCCC4)CC1 | -0.1 | -9 | 4 | 4 | -4.8 | 3.2%
CCN(CC)CCCNC(=S)N1CCN(c2nc(-c3ccccc3)cs2)CC1 | 0.2 | -20 | ? | -16 | 0.4 | -1.4%
COc1ccccc1Nc1ncnc2scc(-c3ccc(F)cc3)c12 | 0.6 | nt | 4 | nt | nt | -1.0%
COC(=O)C1CCN(C(=O)COC(=O)c2n[nH]c3ccccc23)CC1 | -0.1 | -1 | -4 | -2 | -2.2 | 5.2%[38.3 µM]
COc1cc(NC(=O)c2cccs2)c(OC)cc1NC(=O)c1cccs1 | -0.3 | -23 | -7 | -18 | -1.7 | 24%
O=C(c1ccncc1)c1ccc(Br)cc1 | -0.2 | 2 | -7 | 5 | -0.3 | 7.6%[38.3 µM]
Cc1ccc(Cl)cc1NC(c1ccc(F)cc1)c1nnc(-c2ccccc2)o1 (stereo unspecified) | 2.8 | nt | -8 | nt | nt | 1.3%
Cc1ccc(NC(=O)CNc2cccc(S(=O)(=O)N3CCCCC3)c2)cc1F | 0.4 | -9 | 24 | 2 | 1.7 | 2.3%
CCn1cc([N+](=O)[O-])c(C(=O)N2CCOCC2)n1 | 0.3 | 2 | 0 | -1 | -2.7 | -0.1%
CCOc1ccc(CCNC(=O)COC(=O)CNS(=O)(=O)c2ccc(NC(C)=O)cc2)cc1OCC | -0.2 | -5 | -1 | -21 | 2.5 | 4.4%
O=C(NCC(c1cccnc1)N1CCc2ccccc2C1)C(=O)Nc1ccc(F)cc1F (stereo unspecified) | 0.0 | nt | 3 | nt | nt | 0.2%
c1ccc(-c2nnc(CSc3nc4ccccc4[nH]3)o2)cc1 | -0.4 | 0 | 0 | -2 | -3.3 | 3.5%
O=c1c2oc3ccccc3c2[nH]c(=S)n1-c1ccccc1 | 0.8 | 2 | -10 | 7 | 2.9 | 0.5%
COc1ccc(NC(=S)N2CCCC2)cc1OC | 0.2 | 12 | 9 | -17 | -4.2 | -1.5%
COc1cc2ncnc(NCc3ccc(C)o3)c2cc1OC | -0.2 | -7 | -8 | -9 | -2.4 | 2.2%
C[C@H](CO)N1C[C@H](C)[C@@H](CN(C)S(=O)(=O)c2ccc(F)cc2)Oc2c(NS(=O)(=O)c3ccccc3)cccc2C1=O | -0.6 | 5 | -4 | 3 | -3.9 | -0.4%
O=C(Nc1ccc(Cl)cc1)c1cc(S(=O)(=O)N2CCCc3ccccc32)ccc1F | 2.0 | nt | 44 | nt | nt | 0.6%
COc1cccc(N2CCN(C3CC(=O)N(c4ccc(F)c(Cl)c4)C3=O)CC2)c1 (stereo unspecified) | 2.7 | -11 | -4 | -13 | -4.2 | -2.3%
CCOC(=O)NC(=O)/C(C#N)=N\Nc1cccc(Cl)c1 | 2.1 | -2 | 24 | -6 | 4.5 | 16µM*
CNS(=O)(=O)c1ccc(C)cc1 | -0.3 | 4 | -12 | 9 | -2.1 | -3.4%
COc1ccc(N(C(=O)Cc2cccs2)C2C=CS(=O)(=O)C2)cc1 (stereo unspecified) | -0.2 | -2 | -8 | 3 | 1.0 | -0.2%
COc1ccc(CN2C(=O)c3ccccc3C2=O)cc1C(=O)N(C)CC(=O)Nc1ccc(F)cc1 | 1.6 | 0 | -12 | 12 | 1.1 | 1.0%
COc1ccccc1Oc1ncnc2sccc12 | 1.3 | 10 | -20 | -3 | 4.3 | -0.1%
CNc1ncnc2c1ncn2[C@H]1CN(Cc2ccc(Cl)cc2)C[C@@H](CO)O1 | 0.3 | -1 | nt | 6 | -3.9 | 1.2%
COc1ccc(Nc2nc3c(c(=O)n(C)c(=O)n3C)n2CCO)cc1 | -0.7 | -1 | 0 | -18 | -4.5 | -1.6%
COc1ccc(/C=N/Nc2nc3ccccc3[nH]2)c(OC)c1OC | 3.2 | -4 | 0 | -17 | 3.5 | 0.5%

Pulled one by one from the entries so far, four records:
SMILES | TRPML1 agonist | Six1-Eya2 inh | TRPML1 inh | CtBP-E1A blk | D2 ag | PINK1 modulator
O=C(c1ccncc1)c1ccc(Br)cc1 | -0.2 | 2 | -7 | 5 | -0.3 | 7.6%[38.3 µM]
COc1ccc(Nc2nc3c(c(=O)n(C)c(=O)n3C)n2CCO)cc1 | -0.7 | -1 | 0 | -18 | -4.5 | -1.6%
C[C@H](CO)N1C[C@H](C)[C@@H](CN(C)S(=O)(=O)c2ccc(F)cc2)Oc2c(NS(=O)(=O)c3ccccc3)cccc2C1=O | -0.6 | 5 | -4 | 3 | -3.9 | -0.4%
Cc1ccc(NC(=O)CNc2cccc(S(=O)(=O)N3CCCCC3)c2)cc1F | 0.4 | -9 | 24 | 2 | 1.7 | 2.3%

(next part)
SMILES | TRPML1 agonist | Six1-Eya2 inh | TRPML1 inh | CtBP-E1A blk | D2 ag | PINK1 modulator
CN1C(=O)C(=O)/C(=C(/O)c2ccc(Br)cc2)C1c1ccc(Cl)cc1 (stereo unspecified) | -0.2 | 0 | -1 | -2 | -1.8 | 0.0%
Cc1ccc(C)c(N2CN(Cc3ccco3)CNC2=S)c1 | 0.8 | 8 | -11 | -18 | -3.7 | 0.0%
COC(=O)/C(=C/Nc1ccccc1)[N+](=O)[O-] | 0.1 | 3 | 3 | 15 | -1.5 | 0.0%[38.3 µM]
Cc1ccc(N2C(=O)CSC2c2cccnc2)c(Cl)c1 (stereo unspecified) | 0.1 | 22 | -6 | 5 | 1.4 | 7.0%
CC(=O)c1c(C)nc2sc3c(=N)n(N)cnc3c2c1-c1ccc(Cl)cc1 | -0.3 | -9 | 52 | 8 | -2.9 | 0.3%
CCc1ccc(C2CC(=O)N(c3ccc(F)cc3)C3=C2C(=O)OC3)cc1 (stereo unspecified) | 0.8 | -6 | 27 | 3 | 1.9 | 2.3%
CCn1nc(NC(=O)CC(C)C)c2cc3ccc(C)cc3nc21 | 1.2 | 7 | -17 | nt | -1.4 | 4.4%
COc1ccc(-c2csc3ncnc(N4CCN(c5ccccc5OC)CC4)c23)cc1 | 3.0 | -14 | 60 | -28 | -5.0 | -1.1%
CCOC(=O)N1CCC(NC(=O)c2cc(S(=O)(=O)NCCc3ccccc3)ccc2F)CC1 | -0.7 | -12 | -7 | 3 | 2.4 | 0.4%
CN(C)S(=O)(=O)n1cnc(C(CCO)c2ncn(S(=O)(=O)N(C)C)c2CCCO)c1 (stereo unspecified) | 0.0 | -1 | 5 | 6 | -1.5 | 2.6%
CCCCN1C(=O)c2cccc3cc(O)cc(c23)C1=O | 2.6 | 0 | 28 | 7 | ? | 4.1%
CC1(C)CC(=O)C(N=Nc2ccc(S(=O)(=O)N3CCOCC3)cc2)=C(O)C1 | -0.6 | 0 | -6 | -5 | -3.7 | -0.1%
Cc1ccc(C(=O)Nc2sc(C(=O)N(C)C)c(C)c2C#N)cc1 | -0.4 | -17 | -23 | -6 | -3.7 | -0.5%
CCCc1[nH]nc2c1C1(C(=O)N(C(C)C)c3ccccc31)C(C#N)=C(N)O2 (stereo unspecified) | 0.2 | -1 | 11 | -3 | 2.2 | 4.3%[38.3 µM]

Bioassay records (PubChem)
